# Calb biofilm kill: mixtures killing C. albicans biofilm | C. albicans biofilm persisters + clotrimazole, fluorescence viability; primary screen in compound mixtures of four per well | inhibition, % at 7.6 µM | 120,000 compounds, 0.02% hits;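 active = inhibition above 30.3% in the primary screen of four-compound pools, then above 30% when the compound was retested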;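 note: compounds exposed to preformed 24 h biofilms for 48 h; the number belongs to the whole pool; some results filed as inactive read as strong as hits; inactives centre near 12; 0% = biofilm with clotrimazole alone and 100% = kill control; retested singly at about 60 µM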
#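 Test system: C. albicans CAF4-2 wild-type biofilms; buffer or medium: RPMI/MOPS medium, pH 7.0; schedule: 24 h biofilm formation, then 48 h compound exposure, 37 °C; detection: Alamar Blue fluorescence; measure: percent inhibition of biofilm viability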
# An asterisk follows results filed as active. The list is partial; the hit share may differ from the screen's.
SMILES,Calb biofilm kill
CC1=CC(C)C(CN(CCC[N+](C)(C)C)C(=O)Nc2ccccc2)C(C)C1 (centres undefined),17.6
O=C(CCSCc1ccc(Cl)cc1)NC1CCCC1,22.9
Cc1ccccc1N1CCN(C2=NC(=O)/C(=C\c3cccs3)S2)CC1,5.6
CC(=O)C1=C(O)C(=O)N(c2nccs2)C1c1ccc(F)cc1 (centres undefined),12.0
O=C(CSc1nc2[nH]ncc2c(=O)[nH]1)N1CCCCC1,2.9
O=C(CNCc1ccccn1)N1CCc2ccccc2C1,4.5
c1ccc2c(c1)Nc1nccnc1S2,13.3
C/C(=N\NC(=O)CSc1nnc(C)s1)c1ccc(Cl)cc1,20.2
CCO[C@@H]1OC(C(=O)NCc2nc3ccccc3[nH]2)=C[C@H](c2cn(C(C)=O)c3ccccc23)[C@H]1CCCO,13.1
CS(=O)(=O)c1ccc(Cl)c(NC(=O)Cc2c(F)cccc2Cl)c1,7.9
COCCn1c(SCC(=O)N2CCc3ccccc3C2)nc2ccccc2c1=O,-2.8
COc1cc(OC)cc(C(=O)N[C@H](C(=O)OCC(=O)NC(=O)c2cccn2C)C(C)C)c1,11.0
Cc1c(Cc2ccc3c(c2)OCO3)sc(NC(=O)C2CC2)c1C(N)=O,19.0
Cc1noc(C)c1C1(O)CCCCCCCCCCC1,10.4
O=C(NCCN1CCOCC1)NC1(C(F)(F)F)Oc2ccc(Cl)cc2O1 (centres undefined),22.4
CCN(C(=O)c1c(N)cnn1C)c1ccccc1,14.5
CC1CCN(c2nc(NCc3ccco3)nc(N)c2[N+](=O)[O-])CC1,16.2
CC1=NCCN1CCNC(=O)Nc1cc(C)cc(C)c1,16.9
Cc1ccc(C)c(NC(=O)Cc2coc3cc4c(cc23)CCC4)c1,18.9
CC1(C(=O)NCc2ccc(Cl)c(Cl)c2)Oc2ccccc2NC1=O (centres undefined),16.2
CCOC(=O)c1nn(-c2ccc(F)cc2)c2c1CC/C2=C/c1ccccc1,10.2
CN(C)C(CNC(=O)c1ccc(S(=O)(=O)N(C)C)cc1)Cc1ccccc1 (centres undefined),14.4
CCN(C(=O)COC(=O)c1n[nH]c2ccccc12)C1CCS(=O)(=O)C1 (centres undefined),8.1
CCC(=O)N(Cc1ccco1)c1nc(C(=O)Nc2ccc(Cl)cc2)c(C)s1,18.8
CC(C)N1CCN(Cc2cccc(-c3ccco3)c2)CC1CCO (centres undefined),4.2

# Molecules listed so far with two or more sulfur atoms, in the order listed:
SMILES,Calb biofilm kill
Cc1ccccc1N1CCN(C2=NC(=O)/C(=C\c3cccs3)S2)CC1,5.6
C/C(=N\NC(=O)CSc1nnc(C)s1)c1ccc(Cl)cc1,20.2

# Additional results
SMILES,Calb biofilm kill
C=CCN1C(=O)C(Cc2ccc(OCC)cc2)SC1=Nc1ccc(C(=O)O)cc1 (centres undefined),14.5
COC(=O)COc1cccc(/C=N/NC(=O)CCSc2ccccc2)c1,15.9
O=C(Cc1nc2ccccc2[nH]1)c1ccc(Br)cc1,9.8
Cc1cc(C)n(-c2ncc3c(n2)N(CCO)CCOC3=O)n1,-5.8
COc1cc(/C=C2/NC(=O)N(CC(=O)Nc3cccc(C)c3)C2=O)ccc1OCC(N)=O,13.8
O=[N+]([O-])c1ccc(O)c(/C=N/Nc2ccccc2Cl)c1,8.3
COc1ccccc1N1C(=S)NC2CS(=O)(=O)CC21 (centres undefined),8.5
O=C(O)C1C2CCC(O2)C1C(=O)NCc1ccccc1Br (centres undefined),16.2
COC(=O)c1cccc(C23CC4(C2)[C@H](CN(Cc2cccnc2)[C@@H]4c2ccccc2)C3c2ccccc2)c1 (some centres undefined),16.7
CCC(C)NC(=O)CN1C(=O)C(CC)Sc2ccccc21 (centres undefined),12.9
CC(=O)C1=C(c2ccccc2)OC(N)=C(C#N)C1c1ccccc1F (centres undefined),1.3
O=C(c1ccc(S(=O)(=O)N2CCCCC2)cc1)N1CCN(c2ccccc2F)CC1,9.4
O=C(CN1CCOCC1)N/N=C/c1ccc(-c2ccc(Br)cc2)o1,12.2
COC(=O)CNc1nc(Cl)nc(Nc2ccc(Cl)cc2)n1,7.7
CNC(=O)COC(=O)/C=C/c1cccc(F)c1,1.0
CC(C)c1nnc(NC(=O)CCC(=O)Nc2ccc3cn[nH]c3c2)s1,16.9
CC(C)(CO)Nc1nc(N2CCCC2)nc(N2CCCC2)n1,13.5
CCC1(CC)Cc2ccccc2C(C2=C(O)CC(C)(C)CC2=O)=N1,22.6
CC(C)CCN(C(=S)Nc1cccc(F)c1)C1CCN(C(C)C)CC1,19.8
CC1(C)CC2CC(C)(CN2C(=O)Cc2ccccc2)C1 (centres undefined),1.6
Fc1ccccc1Nc1nc(-c2ccncc2)nc2ccccc12,16.6
O=C(NNc1c(Cl)cc(Cl)cc1Cl)c1cccc([N+](=O)[O-])c1,3.5
O=C(NNC(=S)NC(=O)c1ccccc1[N+](=O)[O-])c1ccc(Cl)cc1Cl,5.3
Brc1ccc2nc(N3CCCC3)sc2c1,-1.0
COC(=O)c1ccc(CSc2ccc3nnc(-c4ccc(OC)cc4)n3n2)o1,9.4
SMILES,Calb biofilm kill
CCN(CC)CCCNC(=O)CSc1nc2c(c(C(F)(F)F)n1)CCc1ccccc1-2,6.4
O=C(Nc1cccnc1)c1sc(Nc2ccccc2F)nc1-c1ccccc1,0.4
CSc1nnnn1-c1c(C)cccc1C,14.2
Cn1cccc1CC(=O)N/N=C/c1cccc([N+](=O)[O-])c1,7.1
COc1ccc([N+](=O)[O-])cc1NCc1ccco1,12.1
Cc1ccc(S(=O)(=O)N(CC(=O)N=Nc2c(O)[nH]c3ccccc23)c2ccc(C)c(C)c2)cc1,1.3
CC(C)NC(=O)C1CCN(C2CCN(Cc3nc(C(C)C)cs3)CC2)CC1,-2.1
COc1ccc(N2CCN(C(=O)c3cccn4c(=O)c5ccccc5nc34)CC2)cc1,17.7
C=CCn1c(SCC(=O)C23CC4CC(CC(C4)C2)C3)nc(O)cc1=O,16.1
C=CCN(c1cccc(C(F)(F)F)c1)S(=O)(=O)c1cccc(C(=O)OCC(=O)NCCC)c1,18.9
NC(=S)NNC(=S)Nc1ccccc1,7.4
Cc1ccc2c(c1)C(SCC(=O)NCCc1ccccc1)CC1(CCCC1)O2 (centres undefined),1.4
Cn1c(N)c(C(=O)Nc2ccccc2F)sc1=S,18.5
Cc1ccc(O)c(NC(=O)c2noc3c2CCCCC3)c1,16.4
COc1ccc(NC(=O)CN2CCC(NC(=O)C3CCCCC3)CC2)c([N+](=O)[O-])c1,3.6
CN1/C(=C/C(=O)C2CC2)C(C)(C)c2ccccc21,8.4
CNC(=O)Nc1cc(C(F)(F)F)cc(C(F)(F)F)c1,16.1
O=C(O)c1cc(O)c2c(c1)C(=O)c1cc(O)cc(O)c1C2=O,20.7
COC(=O)c1c(-c2c(Cl)cccc2Cl)noc1NC(=O)NN1CCOCC1,22.4
O=C(COC(=O)/C=C/c1ccc(Cl)cc1)NCCC1=CCCCC1,9.1
CN(CC(=O)Nc1ccccc1Cl)CC(=O)Nc1c(F)cccc1F,4.9
N#C/C(=C\c1ccccc1)C(=O)Nc1cccnc1,13.6
NC(=O)CN(c1ccc([N+](=O)[O-])cc1)S(=O)(=O)c1ccccc1,11.6
CC(C)N(Cc1nccn1C)C(=O)c1ccc(OC2CCN(C(=O)C3CC3)CC2)cc1,12.6
CC1CCN(c2nnc(N3CCC(C)CC3)c3ccccc23)CC1,18.4

# 4 compounds out of the list, ordered by formula weight, rising:
SMILES,Calb biofilm kill
Cn1c(N)c(C(=O)Nc2ccccc2F)sc1=S,18.5
O=C(COC(=O)/C=C/c1ccc(Cl)cc1)NCCC1=CCCCC1,9.1
Cc1ccc2c(c1)C(SCC(=O)NCCc1ccccc1)CC1(CCCC1)O2 (centres undefined),1.4
Cc1ccc(S(=O)(=O)N(CC(=O)N=Nc2c(O)[nH]c3ccccc23)c2ccc(C)c(C)c2)cc1,1.3

# Back to the main list, repeating the 3 entries before the break.
SMILES,Calb biofilm kill
NC(=O)CN(c1ccc([N+](=O)[O-])cc1)S(=O)(=O)c1ccccc1,11.6
CC(C)N(Cc1nccn1C)C(=O)c1ccc(OC2CCN(C(=O)C3CC3)CC2)cc1,12.6
CC1CCN(c2nnc(N3CCC(C)CC3)c3ccccc23)CC1,18.4
O=C(CCCCCNC(=O)c1ccccc1)N/N=C/c1ccc(O)cc1O,14.8
CC(=O)c1ccccc1OCC(O)CN1CCN(CCN2C(=O)c3cccc4cccc(c34)C2=O)CC1 (centres undefined),15.2
COc1ccc(/C=C/C(=O)NC(=S)NNC(=O)c2cccs2)cc1OC,16.8
O=C(CSc1nc2ccccc2s1)N1N=C(c2cccs2)CC1c1ccc(F)cc1 (centres undefined),11.5
O=C(CN(C1CCCCC1)S(=O)(=O)c1ccc(Br)cc1)NCc1ccncc1,2.7
COc1ccc(CCNC(=O)C(=O)Nc2ccc3c(c2)OCCO3)cc1OC,13.9
O=C(CN(C(=O)CCC(=O)Nc1nccs1)C1CCCC1)NCc1ccc2c(c1)OCO2,9.7
O=C(Nc1cc(S(=O)(=O)N2CCCC2)ccc1OCC(F)(F)F)c1ccc(F)cc1,9.6
COc1ccccc1NC(=O)N1CCN(C)CC1,12.1
CCc1ccc(N(CC(=O)Nc2sc3c(c2C(=O)OC)CCCC3)S(C)(=O)=O)cc1,5.0
O=C(NCc1ccco1)C1CCCN1C(=O)Nc1ccc(Cl)cc1 (centres undefined),13.3
COc1ccc(/C(C)=N/Nc2ccccc2Cl)c(O)c1,16.8
Cc1ccc(NC(=O)C(Nc2ccccc2)c2ccccc2)cc1 (centres undefined),13.6
S=c1[nH]nc(COc2ccc(Cl)cc2)n1Cc1ccco1,9.7
CCc1ccc(OCC2c3cc(OC)c(OC)cc3CCN2C(=S)NCCOC)cc1 (centres undefined),13.7
O=C(CSc1nc2ccccc2[nH]1)NC1CCCc2ccccc21 (centres undefined),18.8
Cc1ccc2nc(NC(=O)[C@H](C)N3C(=O)C4CC=CCC4C3=O)sc2c1 (some centres undefined),-1.8
NC(=O)c1cccnc1Nc1cccc(F)c1,9.0
COC(=O)c1sc(-c2ccccc2)cc1NC(=O)c1cc(OC)cc(OC)c1,10.7
COc1cc(OC)cc(C(=O)N/N=C2/SCC(=O)N2Cc2ccco2)c1,9.9
CCN(CC)S(=O)(=O)c1ccc(C(=O)N(c2ccc(C)cc2)C2C=CS(=O)(=O)C2)cc1 (centres undefined),13.7
O=C(CCS(=O)(=O)c1ccccc1Cl)NCc1ccc(F)cc1,17.2
COc1cc(CNCCc2c[nH]c3ccccc23)cc(Cl)c1OCC(N)=O,-5.4
Cc1ccc(SCc2cc(=O)c3c(=O)n(-c4ccccc4)[nH]c3[nH]2)cc1,12.0
CN(C)S(=O)(=O)c1cccc(N=C2NN=C(c3ccccc3)CS2)c1,9.7
SMILES,Calb biofilm kill
O=C(Nc1ccc(Cl)cc1Cl)N1CCN(c2ncccn2)CC1,23.6
Cc1csc(NC(=O)CSc2ccc(-c3ccccn3)nn2)n1,10.7
S=C(Nc1ccc(Cl)cc1)N1CCN(Cc2ccccc2)CC1,21.2
CCn1cc(/C=N/NC(=O)COc2cccc3cccnc23)c2ccccc21,3.5
COc1ccc(-c2ccc(C(C)=O)cc2)cc1[C@H]1[C@H]2C=CC[C@@H](C)[C@@H]2C(=O)N1Cc1ccccc1,7.9
COc1cccc(NC(=O)c2ncc(Cl)c(Cl)c2Cl)c1,-0.1
Cc1cc2ncc(Cl)nc2cc1C,5.9
O=C(NCCN1C(=O)S/C(=C\c2ccccc2F)C1=O)C1CCCN1C(=O)c1cccs1 (centres undefined),13.4
N/C(=N\OC(=O)c1ccc(Cl)cc1)c1[nH]ncc1Br,16.8
COc1ccc(Cn2c(C(C)C)nc3sc4ccccc4c(=O)c3c2=O)cc1,30.5
CCOC(=O)/C(C#N)=C/C=C1/C=CC=CN1C,15.9
CC1(C)CC2CC(C)(CN2S(=O)(=O)c2ccc(C(=O)Nc3ccc(S(=O)(=O)N4CCOCC4)cc3)cc2)C1 (centres undefined),7.5
CCCCCNC(=O)c1ccc2c(=O)n(CCCN3CCCC3=O)c(=S)[nH]c2c1,11.1
CC1(C)N=C(N)N=C(N)N1c1ccc(OCCCOc2ccccc2)c(Cl)c1,12.8
COc1ccc(/C=C(\C#N)C(=O)Nc2cc(C)c(Cl)cc2OC)cc1O,18.3
Cc1ccc(C)c(S(=O)(=O)N/N=C/c2ccc(F)cc2)c1,15.8
COc1ccccc1CN1CCNC(=O)C1CC(=O)N(C)Cc1ccon1 (centres undefined),14.9
COc1ccc(OCC(=O)N/N=C2\CCCCc3ccccc32)cc1,2.7
COC(=O)c1ccc(C23CC4(C2)[C@H](CN(C)[C@@H]4c2ccccc2)C3c2ccccc2)cc1 (some centres undefined),18.0
Cc1cc(Sc2nnc(/N=C/N(C)C)s2)c2ccccc2n1,15.9
O=C(c1ccccc1Cl)N(Cc1ccc(Br)cc1)N1C(=O)CCC1=O,5.8
CSCCC(NC(=O)c1ccccc1)C(=O)Nc1ccc(NC(C)=O)cc1 (centres undefined),13.2
FC(F)(F)c1cccc(NC(=S)Nc2ccc(Cl)c(Cl)c2)c1,10.1
O=C(c1cccc(S(=O)(=O)N2CCc3ccccc3C2)c1)N1CCN(c2ccc(O)cc2)CC1,18.8
Cn1c(NNC(=O)c2cccc3ccccc23)cc(=O)n(C)c1=O,16.9
SMILES,Calb biofilm kill
COC(=O)c1c(N2C(=O)CC(Sc3ccccc3C(=O)O)C2=O)sc(C)c1C (centres undefined),3.4
Cc1cccc(NC(=O)CN2C(=O)N/C(=C/c3cc(C)n(-c4cccnc4)c3C)C2=O)c1,1.3
NC(=O)CC(NC(=O)Cc1cccc2ccccc12)c1ccc(NCc2ccccc2)c([N+](=O)[O-])c1 (centres undefined),10.9
CN(c1ccccc1)S(=O)(=O)c1ccc(Cl)c(C(=O)NC2=NCCS2)c1,10.0
Cn1c(=O)c2c(nc(CN3CCc4ccccc4C3)n2Cc2ccc(Cl)cc2)n(C)c1=O,16.1
COc1ccc(-c2nnnn2-c2ccccc2OC)cc1,14.7
CCc1ccc(NC(=O)c2ccc(Cn3cc([N+](=O)[O-])cn3)cc2)cc1,-2.5

# Screens: PubChem BioAssay, PCMD
